# Screening results deposited in PubChem BioAssay by several laboratories.
# Ecoli rRNA inh – inhibits bacterial ribosomal RNA function over humanized ribosomes. E. coli WT GFP vs humanized-ribosome RFP mutants, fluorescence, 24 h; hits give low values; DMSO median 0, no signal -100. GFP signal change (wild-type ribosome), % (test concentration not listed). 1.6% of 350,000 active. AID 720706;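 active = significant combined selectivity score with lowered wild-type GFP, culture density cut under 30%, mutant RFP and density less affected; inactive = any of these conditions unmet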; note: one replicate is shown; some compounds called inactive have numbers as strong as hits
# Bfl-1 A1 inh – inhibitors of the anti-apoptotic protein A1, read as caspase activation. 0.066% of 330,000 active. caspase activation, % (test concentration not listed). MEF A1-2A-BIM cells, Caspase-Glo 3/7 luminescence, 3 h; percent of clofoctol response, vehicle zero. AID 2462;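 active = over half of replicate activation scores above 10%, or exactly half above 10 with the replicate mean above 10; inconclusive = replicate mean below 10 yet half the replicates above 10; inactive = over half of replicates below 10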;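 note: wells of about 30 µL received 50 nL stock; many hits fall short of the cut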
# UCH37 DUB inh – inhibitors of human deubiquitinating enzyme UCH37 | inhibition, % (test concentration not listed) | purified proteasome/UCH37, Ub-AMC cleavage fluorescence | Q9Y5K5 | AID 588478 | 0.33% of 330,000 active;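 active = mean of two replicates above 20%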;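 note: 0% = compound-free wells with enzyme and 100% = wells lacking proteasome; stock transfer was 100 nL into about 20 µL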
# Target sequence (Q9Y5K5 whole entry, looked up): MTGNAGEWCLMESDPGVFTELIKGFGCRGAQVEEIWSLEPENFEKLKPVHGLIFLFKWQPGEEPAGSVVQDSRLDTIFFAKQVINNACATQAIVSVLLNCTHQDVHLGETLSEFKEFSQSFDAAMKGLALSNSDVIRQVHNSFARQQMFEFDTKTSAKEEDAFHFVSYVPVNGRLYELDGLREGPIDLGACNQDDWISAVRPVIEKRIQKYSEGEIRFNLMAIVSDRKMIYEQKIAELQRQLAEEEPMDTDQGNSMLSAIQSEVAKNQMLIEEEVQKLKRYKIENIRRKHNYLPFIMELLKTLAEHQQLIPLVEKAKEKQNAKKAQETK
#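 Signal – fluorescence, ex 355 nm, em 460 nm · System – Proteasome-bound UCH37 · Input – 0.15 nM proteasome as dispensed · Timing – 30 min preincubation with enzyme, 25 min cleavage at room temperature · Read-out basis – percent inhibition of cleavage signal versus uninhibited and no-proteasome wells · Medium – Tris-HCl pH 7.4 with ATP-MgCl2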
# AF4-AF9 inh – blocks AF4 peptide binding to human AF9; inhibition, % at 10 µM; AlphaScreen, biotin-AF4 peptide binding to FLAG-AF9; P42568; 0.47% of 350,000 active;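 active = every replicate reaching a set inhibition limit, whatever the replicate mean, cut at about 25% in these data; inconclusive = mean inhibition reaches that limit but some replicates miss it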;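 note: 0% = plate neutral control median and 100% = total signal loss; the record names both 10 and 1 µM as test concentration; the first replicate is given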
# Target sequence (P42568 whole entry, looked up): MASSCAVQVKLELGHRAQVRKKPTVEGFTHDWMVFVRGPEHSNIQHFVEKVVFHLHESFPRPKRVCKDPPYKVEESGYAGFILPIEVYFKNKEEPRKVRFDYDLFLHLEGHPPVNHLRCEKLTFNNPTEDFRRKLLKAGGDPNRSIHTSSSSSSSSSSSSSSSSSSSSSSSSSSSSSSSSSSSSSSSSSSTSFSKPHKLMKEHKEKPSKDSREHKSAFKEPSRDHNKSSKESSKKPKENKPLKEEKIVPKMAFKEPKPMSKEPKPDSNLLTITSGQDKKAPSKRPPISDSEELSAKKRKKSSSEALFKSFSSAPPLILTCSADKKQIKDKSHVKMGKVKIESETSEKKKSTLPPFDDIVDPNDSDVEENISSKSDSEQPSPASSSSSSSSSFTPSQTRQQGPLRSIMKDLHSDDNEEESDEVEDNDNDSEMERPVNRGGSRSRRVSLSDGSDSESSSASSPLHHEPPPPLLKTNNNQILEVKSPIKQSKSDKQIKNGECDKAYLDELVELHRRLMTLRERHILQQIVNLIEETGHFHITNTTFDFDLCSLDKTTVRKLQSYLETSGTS
# FGF22 binding – FGF22 (human) thermal shift binding; Q9HCT0; recombinant FGF22 thermal shift, SYPRO orange fluorescence; percent of sucrose octasulfate shift, DMSO zero; calls only at 9.99 µM; 1.5% of 340,000 active; AID 651658;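 active = melting point raised past a set limit in the mean and every replicate; inconclusive = no clear call; three in four hits are not shown here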
# Target sequence (Q9HCT0 whole entry, looked up): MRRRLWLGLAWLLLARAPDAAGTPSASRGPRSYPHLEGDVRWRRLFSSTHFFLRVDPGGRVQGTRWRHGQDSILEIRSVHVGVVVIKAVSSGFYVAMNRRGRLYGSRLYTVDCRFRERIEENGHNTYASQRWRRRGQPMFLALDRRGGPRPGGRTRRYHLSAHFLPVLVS
# T cruzi inh – blocks replication of Trypanosoma cruzi; 1.4% of 300,000 active; T. cruzi beta-gal in NIH3T3, luminescence, 90 h; inhibition, % (no concentration beside the values);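 active = mean inhibition across valid replicates above about 55%, limit read from the data; inconclusive = mean below that limit but half or more replicates reach it; inactive = mean below it, under half of replicates reach it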;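 note: signal also drops with host cell toxicity which is not excluded here; 0% = plate median of DMSO wells and 100% = zero luminescence signal; higher percent means less beta-gal luminescence so fewer parasites; stock transfer was 50 nL into about 50 µL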
# Ecoli growth – E. coli growth inhibition; Escherichia coli growth, OD600, 23 h; hits give low values; OD600 absorbance (test concentration not listed); 0.21% of 330,000 active; AID 1053175;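 active = OD600 absorbance below the run mean of sample wells minus 3.6 SD, in any replicate, cut at about 0.56 in these data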;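 note: stock transfer was 300 nL into about 60 µL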
# Beta cell apopt – beta cell apoptosis inhibition; INS-1E cytokine-induced death, ATP luminescence, 48 h; percent of positive-control rescue, neutral wells zero; protection from apoptosis, % (no concentration beside the values); 0.8% of 300,000 active; AID 435005;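 active = all replicates at 75% or more, or half of them and the mean; inconclusive = half reach 75% but not the mean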;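 note: 0% = cytokine-treated negative control wells and 100% = positive control rescue; higher means more ATP so stronger rescue from cytokine killing; wells of about 40 µL received 100 nL stock; the first replicate is given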
# Ecoli rRNA inh OD600 – second read-out of Ecoli rRNA inh, no call of its own (marks repeat the call); OD600 change, %; measured here: OD600 growth;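 optical density of the mix in the first replicate; 0 = DMSO median and -100 = no signal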
# Ecoli rRNA inh RFP – second read-out of Ecoli rRNA inh, no call of its own (marks repeat the call); RFP signal change, %; measured here: RFP humanized mutant strains;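 first replicate; 0 = DMSO median and -100 = no signal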
# Active calls of the source: *; i = inactive; ? = inconclusive; . = no result given. These rows are one share of the data, so the mix of outcomes need not match the whole.
SMILES,Ecoli rRNA inh,Ecoli rRNA inh OD600,Ecoli rRNA inh RFP,Bfl-1 A1 inh,UCH37 DUB inh,AF4-AF9 inh,FGF22 binding,T cruzi inh,Ecoli growth,Beta cell apopt
O=C(NCCC1=CCCCC1)c1ccc(-n2cncn2)c([N+](=O)[O-])c1,-4,1,-0.1,0.3,3.1,3.0,.,-1,0.69,2
O=C(CSc1nc(-c2ccccc2)cs1)Nc1cccc([N+](=O)[O-])c1,-24,-14,-1.0,-0.7,6.0,-6.9,i,10,0.69,-3
CCOC(=O)C1Nc2ccc(C(=O)O)cc2C2C=CCC12 (stereo not given),12,11,6.6,0.6,.,1.1,i,8,.,1
CCN(CC)C(=O)C(=O)Nc1ccc(OCc2ccccc2)cc1,-9,-7,-1.7,-0.2,4.5,-1.0,i,3,0.7,4
Cc1ccsc1/C=N/NC(=O)c1nnn(-c2nonc2N)c1C(C)C,-18*,-14*,7.5*,1.4,.,2.7,i,11,.,-4
Brc1ccc(C2=NC(Cc3ccccc3)CO2)cc1 (stereo not given),7,4,-7.5,-3.3,1.0,0.6,i,-6,0.66,4
CN1CCN(C(c2ccccn2)c2cc(Cl)c3cccnc3c2O)CC1 (stereo not given),-53,-77,-21,1.0,7.3,39*,.,?,0.62,15
CCOC(=O)C(NCc1ccco1)(NC(=O)c1ccc(OC)cc1)C(F)(F)F (stereo not given),.,.,.,-0.7,1.8,.,.,-4,0.69,-4
COc1ccccc1CC(=O)N1CCOCC1,18,23,6.8,3.2,1.9,-3.7,i,-6,0.71,-4
COc1cccc(CNCCOCCO)c1OC,.,.,.,-0.9,-0.7,.,.,-4,0.74,-6
Cc1ccc(NC(=O)Cn2cnc3c(oc4nc5c(cc43)COC(C)(C)C5)c2=O)cc1,17,14,-6.7,-0.4,-1.8,-4.5,i,-4,0.67,.
Cc1cccc(C(=O)Oc2ccccc2/C=N/Nc2ccc([N+](=O)[O-])cc2)c1,0,0,-13,0.1,.,-61,i,.,.,15
O=c1[nH]c2ccccc2n1CCCOc1ccccc1,.,.,.,0.3,1.3,.,.,-9,0.7,4
O=C(COC(=O)c1ccccc1C(F)(F)F)NC(=O)NCc1ccco1,.,.,.,0.9,-1.6,-0.1,i,.,0.69,-6
CCC(NC(=O)COC(=O)C1CC2CCCC(C1)C2=O)c1ccc(Br)cc1 (stereo not given),-8,-8,0.8,1.3,1.1,-28,i,-3,0.73,-2
Cc1ccc(NC(=O)N2CCC(=O)N2)cc1,.,.,.,0.5,3.5,.,.,-12,0.68,-7
Cc1cnc(C(=O)OCC(=O)N2CC(C)CC(C)C2)cn1 (stereo not given),12,17,-1.8,0.1,-0.1,-1.3,i,.,0.65,-1
CC(=O)c1cccc(NC(=O)C2=CC(c3ccco3)=NS(=O)(=O)N2C)c1,4,8,-0.5,0.5,9.5,-8.1,i,6,0.63,-3
Cc1nn(CC(=O)N2c3ccccc3NC(=O)C2(C)C)c(C)c1[N+](=O)[O-],17,14,-0.9,0.2,1.5,0.2,i,5,0.67,.
COc1ccccc1NC(=S)N(CCN(C)C)C(C)c1ccncc1 (stereo not given),14,15,6.5,-0.3,1.9,-2.6,i,-3,0.64,-4

# Next section, overlapping the part above by 2 compounds.
SMILES,Ecoli rRNA inh,Ecoli rRNA inh OD600,Ecoli rRNA inh RFP,Bfl-1 A1 inh,UCH37 DUB inh,AF4-AF9 inh,FGF22 binding,T cruzi inh,Ecoli growth,Beta cell apopt
Cc1nn(CC(=O)N2c3ccccc3NC(=O)C2(C)C)c(C)c1[N+](=O)[O-],17,14,-0.9,0.2,1.5,0.2,i,5,0.67,.
COc1ccccc1NC(=S)N(CCN(C)C)C(C)c1ccncc1 (stereo not given),14,15,6.5,-0.3,1.9,-2.6,i,-3,0.64,-4
Cc1ccc(N2C(=S)SC3CS(=O)(=O)CC32)cc1 (stereo not given),12,19,0.5,-0.6,6.9,-0.1,.,-20,0.73,6
O=C(O)C(Cc1ccccc1)N=C(NS(=O)(=O)c1ccccc1)c1ccccc1 (stereo not given),4,9,0.3,-0.8,2.3,-3.6,i,.,0.69,4
CCOC(=O)N1CCN(C(=O)CS(=O)Cc2nc(-c3cccc(C)c3)oc2C)CC1 (stereo not given),3,1,-1.7,-0.7,1.5,-9.6,i,1,.,-4
O=C(CSc1nnc(-c2c[nH]c3ccccc23)n1CC1CCCO1)Nc1ccc2c(c1)OCCO2 (stereo not given),.,.,.,0.1,-2.3,.,.,-5,0.7,2
C/C(CC(=O)Nc1ccccn1)=N\NC(=O)c1ccccc1O,-18,-23,-12,0.2,.,0.4,i,-8,.,37
O=C(O)C1CCN(Cc2cccnc2)CC1,16,7,-1.4,1.1,3.7,1.1,i,0,0.69,0
C/C(=N\Nc1ccccn1)c1cccs1,0,-6,-0.4,-4.8,.,0.4,i,-7,.,-3
Cc1ccsc1C(=O)N1CCN(S(=O)(=O)c2cccs2)CC1,2,-1,0.2,-0.7,2.9,-1.6,i,-12,0.71,2
C=CCc1ccccc1OCC(O)CNC(=O)c1ccccc1C(=O)O (stereo not given),-9,-2,-4.2,-0.3,1.1,2.5,i,-1,0.74,1
COC(=O)[C@H]1CCCN1C(=O)Nc1cccc(Oc2c(F)c(F)c(F)c(F)c2F)c1,.,.,.,-0.2,0.1,.,.,.,0.72,-3
COc1cc(C(=O)NNC(=O)CCOc2ccccc2C)cc(OC)c1OC,-7,-5,2.7,0.7,1.7,7.6,i,.,0.71,0
CCON1C(=O)C(C)(C)N(OCC)C(=O)C1(C)C,18,9,2.4,-0.1,5.0,-3.1,i,.,0.7,-5
Cc1c(C(=O)O)cnc2c([N+](=O)[O-])cnn12,19,15,1.8,-4.7,15,0.2,.,3,0.68,0
O=C(CCN1CCN(c2ccc(F)cc2)CC1)Nc1ccccc1F,.,.,.,-1.3,-0.2,.,.,-2,0.76,-5
Cc1cc(C)cc(N=c2c([N+](=O)[O-])nn(-c3ccc(Cl)cc3)n2O)c1,3,-2,-4.2,1.1,5.3,-7.7,.,59*,0.65,-9
CCOC(=O)c1nn(-c2ccc(F)cc2)c(C)c1C(C)=O,.,.,.,-1.0,-0.9,.,.,-17,0.7,-4
CCN1C(=O)c2ccc(C(=O)Nc3ccc4c(c3)OCO4)cc2C1=O,-3,0,-1.0,-5.0,1.6,-1.7,i,-2,0.69,-9
Cc1ccc(-c2nc(SCC(=O)N(C)C3CCS(=O)(=O)C3)[nH]c2-c2ccc(C)cc2)cc1 (stereo not given),.,.,.,0.4,-7.7,.,.,18,0.63,-8
CC(Sc1nnnn1C1CC1)C(=O)N1CC(=O)Nc2ccccc21 (stereo not given),15,7,0.2,0.1,-2.4,-11,i,.,0.71,-3
O=C(CCN1CCN(C(=O)c2ccccc2)CC1)c1ccc(Br)cc1,10,10,2.4,-0.1,1.5,-0.8,i,-19,0.67,-3
CC(C)(C)c1ccc(C(=O)NCC(=O)NCc2ccccn2)cc1,2,8,3.5,1.1,3.2,-4.9,i,.,0.68,1
CSc1nc2ccc(NC(=O)c3ccc(=O)[nH]c3)cc2s1,-1,5,8.4,-0.5,4.4,0.9,i,7,0.63,0
CC(C)C(=O)Nc1ccc(C(=O)CSc2nnc(C3CC3)n2C2CC2)cc1,6,6,2.1,0.7,1.4,-3.6,i,.,0.61,2
Cc1ccc(CNC(=O)COC(=O)c2cc3c(s2)CCC(C)C3)cc1 (stereo not given),.,.,.,-0.5,1.2,.,.,-5,0.72,2
CC1CCCN(C(=O)CNC(=O)c2cccs2)C1 (stereo not given),1,7,-3.2,-0.9,1.9,-1.4,i,.,0.68,2
CCN(CC(=O)Nc1ccccc1C(F)(F)F)C(=O)C1CC(=O)N(Cc2ccccc2)C1 (stereo not given),13,6,3.2,-0.6,-0.8,6.5,.,-5,0.66,.
CC(NC(=O)CSc1nc(=O)cc(N)n1CCc1ccccc1)c1ccccc1 (stereo not given),.,.,.,0.2,1.6,.,.,.,0.68,-4
O=C(COc1ccccc1F)c1ccc(O)cc1O,.,.,.,-3.0,7.2,.,.,-1,0.63,-8
Cc1ccc2c(c1)Oc1ccccc1C=C2C(=O)O,0,0,-3.8,0.2,1.6,-16,i,-9,0.68,-3
Cc1c(C)n(CCC#N)c2ccccc12,.,.,.,-0.6,2.4,.,.,-2,0.65,-5
COc1ccc(CNCC(O)(c2ccc(F)cc2)c2ccc(F)cc2)cc1,-14,-16,1.1,0.5,4.4,-1.8,i,29,0.66,4
COc1cc(OC)c(NS(=O)(=O)c2cn(C)cn2)cc1Cl,10,4,-0.1,-1.3,1.6,-7.3,i,1,0.67,-10
CC(C)c1ccccc1NC(=O)c1cnccn1,4,2,-1.8,0.4,0.0,.,.,-8,0.65,-1
CC(=O)c1ccc(N2CCN(CC(O)COC(c3ccccc3)c3ccccc3C)CC2)cc1 (stereo not given),-32,-63,3.7,0.0,4.8,5.8,i,14,0.66,4
Cc1ccc(C)c(OCCN2CCOCC2)c1,14,7,7.1,0.2,0.4,-2.5,i,6,0.69,-7
O=c1ccc(C(F)(F)F)cn1Cc1cc(=O)n2cc(Br)ccc2n1,13,12,0.8,0.5,-13,-0.1,i,-16,0.64,2
Cc1ccc2cccc(NC(=O)C(F)(F)F)c2n1,.,.,.,0.5,0.2,.,.,-5,0.69,-2
O=C(COC(=O)c1ccc2ccccc2n1)c1ccccc1,-3,3,0.8,-0.2,0.0,-1.0,i,-13,0.68,0
CC(=O)Nc1ccc(N2C(=O)CSC2c2ccccc2)cc1 (stereo not given),6,-1,4.7,1.3,-0.1,-0.3,i,-5,0.64,-11
COc1ccc(C(=O)n2cc(C(C)=O)c3ccccc32)cc1,1,0,2.8,-0.4,1.2,-1.3,i,-2,0.68,-3
COc1cc(OC)c(N(C)S(=O)(=O)c2cccc(C(=O)OCC(=O)NCc3ccco3)c2)cc1Cl,-38,-56,4.4,0.1,2.3,2.5,i,-6,0.65,0
Cc1cc(N2CCN(c3cccc(C(F)(F)F)c3)CC2)n2nc(C)nc2n1,.,.,.,0.2,1.2,.,.,-5,0.73,6
O=C(Cc1ccc(Cl)cc1)Nc1ccc2oc(=O)ccc2c1,1,-3,4.0,-0.7,-21,3.5,i,1,0.65,7
O=C1CC(c2ccccc2)CC(O)=C1C=NCCN1CCOCC1 (stereo not given),.,.,.,0.8,3.8,.,.,0,0.66,.
O=C(O)CN1C(=O)SC(Nc2ccccc2)C1=O (stereo not given),5,-1,-7.3,1.4,5.1,-31,i,-12,0.65,-1
CN1C[C@@H]2[C@@H]3C(=O)N(Cc4ccccc4)C(=O)[C@@H]3[C@](C)(C1=O)N2C(=O)c1ccc(Cl)cc1,2,7,0.5,1.2,2.7,.,i,.,.,-4
